High-throughput results from PubChem BioAssay.
T cruzi repl: T. cruzi replication inhibition; T. cruzi beta-gal in NIH3T3, luminescence, 90 h; inhibition, % (concentration not given with the values); hit rate 1.4% among 300,000; AID 1885;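 active means mean inhibition across valid replicates above about 55%, limit read from the data; inconclusive means mean below that limit but half or more replicates reach it; inactive means mean below it, under half of replicates reach it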;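 further: signal also drops with host cell toxicity which is not excluded here; 0% = plate median of DMSO wells and 100% = zero luminescence signal; higher percent means less beta-gal luminescence so fewer parasites; stock transfer was 50 nL into about 50 µL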
Beta2AR agonist: agonists of human beta-2 adrenergic receptor inducing internalization; AID 504454; response, % (test concentration not listed); P07550; Am2.2-beta2AR cells, FAP receptor internalization, flow cytometry; reference of the scale not given here; hit rate 0.43% among 340,000;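 active means response above a set limit, near 3 SD of response in nonfluorescent compounds, cut at about 42% in these data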;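 further: stock transfer was 100 nL into about 11 µL; a reference agonist was the positive control; negative values mostly stem from fluorescent compounds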
Target sequence (P07550 whole entry, looked up): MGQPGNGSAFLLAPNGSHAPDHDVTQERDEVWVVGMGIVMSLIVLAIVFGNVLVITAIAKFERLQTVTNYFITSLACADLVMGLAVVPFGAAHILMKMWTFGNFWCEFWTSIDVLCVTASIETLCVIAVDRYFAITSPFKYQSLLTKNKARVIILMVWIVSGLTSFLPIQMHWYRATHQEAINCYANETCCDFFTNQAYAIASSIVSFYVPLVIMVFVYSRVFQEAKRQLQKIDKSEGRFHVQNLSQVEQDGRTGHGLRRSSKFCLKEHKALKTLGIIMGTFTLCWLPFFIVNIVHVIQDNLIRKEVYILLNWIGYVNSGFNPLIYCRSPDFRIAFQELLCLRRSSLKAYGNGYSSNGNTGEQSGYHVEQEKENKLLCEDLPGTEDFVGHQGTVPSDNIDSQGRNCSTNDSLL
ALR H2O2 inh: inhibitors of human sulfhydryl oxidase ALR; hit rate 3.8% among 290,000; inhibition, % (concentration not given with the values); purified ALR, DTT oxidation, H2O2 HRP-luminol luminescence;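 active means mean and each replicate at 75% or more; inconclusive means only one of the two met; inactive means neither met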;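 further: stock transfer was 7.5 nL into about 7.5 µL; 0% = neutral wells and 100% = wells with inactivated enzyme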
Target sequence (P55789 whole entry, looked up): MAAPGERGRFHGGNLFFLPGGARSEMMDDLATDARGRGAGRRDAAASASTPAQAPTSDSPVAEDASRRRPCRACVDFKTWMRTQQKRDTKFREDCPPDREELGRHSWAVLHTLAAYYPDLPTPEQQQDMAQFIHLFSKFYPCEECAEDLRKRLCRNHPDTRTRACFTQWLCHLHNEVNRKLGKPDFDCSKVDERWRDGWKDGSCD
Calb FLC: C. albicans growth modulation with fluconazole. AID 1979. hit rate 0.57% among 300,000. growth inhibition, % (no concentration beside the values). C. albicans CaCi-2 (fluconazole-resistant clinical isolate) + fluconazole, Alamar Blue growth, 48 h;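 active means most replicates above 75%; inconclusive means exactly half above 75%; inactive means most below 75%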;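 further: all wells also contain fluconazole at 8 µg/ml as a sub-toxic cotreatment; 0% = median of DMSO wells and 100% = median of geldanamycin control wells; wells of about 8 µL received 7.5 nL stock; the first replicate is given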
LANA-H2A inh: blocks KSHV LANA binding to histone H2A/H2B. Q9QR71. cell-free LANA-H2A/H2B peptide, fluorescence polarization. hit rate 0.6% among 320,000. inhibition, % (concentration not given with the values). AID 2629; in the data active means inhibition mostly above about 10%, no sharp cut-off; inactive means mostly below about 6.7%;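 further: stock transfer was 7.5 nL into about 10 µL; 0% = median of vehicle wells and 100% = median of positive control wells; one replicate is shown; the record names a cut of 25% in any replicate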
rRNA inh HTS: inhibitors of bacterial rRNA selective over humanized ribosomes. hit rate 1.6% among 350,000. E. coli WT GFP vs humanized-ribosome RFP mutants, fluorescence, 24 h; active compounds read low; DMSO median 0, no signal -100. GFP signal change (wild-type ribosome), % (concentration not given with the values). AID 720706;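 active means significant combined selectivity score with lowered wild-type GFP, culture density cut under 30%, mutant RFP and density less affected; inactive means any of these conditions unmet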; further: one replicate is shown; some compounds called inactive have numbers as strong as hits
Beta cell apopt: blocks beta cell apoptosis | INS-1E cytokine-induced death, ATP luminescence, 48 h; percent of positive-control rescue, neutral wells zero | protection from apoptosis, % (concentration not given with the values) | hit rate 0.8% among 300,000 | AID 435005;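 active means all replicates at 75% or more, or half of them and the mean; inconclusive means half reach 75% but not the mean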;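 further: 0% = cytokine-treated negative control wells and 100% = positive control rescue; higher means more ATP so stronger rescue from cytokine killing; wells of about 40 µL received 100 nL stock; the first replicate is given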
Bfl-1 A1 inh: inhibitors of the anti-apoptotic protein A1, read as caspase activation. MEF A1-2A-BIM cells, Caspase-Glo 3/7 luminescence, 3 h; percent of clofoctol response, vehicle zero. caspase activation, % (concentration not given with the values). hit rate 0.066% among 330,000. AID 2462;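 active means over half of replicate activation scores above 10%, or exactly half above 10 with the replicate mean above 10; inconclusive means replicate mean below 10 yet half the replicates above 10; inactive means over half of replicates below 10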;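 further: wells of about 30 µL received 50 nL stock; many hits fall short of the cut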
rRNA inh HTS OD600: recorded beside rRNA inh HTS, whose call it bears; OD600 change, %; measured here: OD600 growth;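 optical density of the mix in the first replicate; 0 = DMSO median and -100 = no signal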
rRNA inh HTS RFP: also measured in rRNA inh HTS; calls as there; RFP signal change, %; measured here: RFP humanized mutant strains;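 first replicate; 0 = DMSO median and -100 = no signal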
Numbers without * were called inactive; ? = inconclusive; . = no result given. Only part of the results is shown; the hit share may differ from the screen's.

SMILES | T cruzi repl | Beta2AR agonist | ALR H2O2 inh | Calb FLC | LANA-H2A inh | rRNA inh HTS | rRNA inh HTS OD600 | rRNA inh HTS RFP | Beta cell apopt | Bfl-1 A1 inh
CNc1ccccc1C(=O)OCC(=O)c1ccccc1 | -3 | 7 | -5 | -21 | -0.5 | . | . | . | 2 | -3.1
O=c1oc(CCO)cc2ccc(Br)cc12 | . | -4 | . | . | -5.8 | 7 | 9 | -6.5 | -9 | 0.1
COc1ccc(C(=O)CN(Cc2ccccc2)C2=NCCS2)cc1 | 10 | 2 | -31 | -17 | 2.0 | . | . | . | -1 | 0.6
COc1ccc(Nc2cc(C)nc(N3CCOCC3)n2)cc1 | . | 5 | 13 | . | 5.4 | . | . | . | -5 | 0.1
CCOC(=O)c1cc(-c2ccccc2)n(CCC(=O)O)c1C | 7 | 15 | 12 | 29 | -0.4 | -3 | -2 | 3.4 | -1 | 0.8
C=CCOc1ccc(Cl)cc1CNCCCN1CCOCC1 | 8 | 1 | . | -15 | -0.9 | . | . | . | 3 | -0.4
COc1ccc(C(=O)N2CCN(c3nnnn3-c3ccccc3)CC2)cc1OC | -11 | -6 | -1 | -4 | 6.2 | . | . | . | -4 | -0.2
Cc1ccccc1Cn1cnc2c(NS(C)(=O)=O)c(C)c(C)cc21 | 12 | 2 | . | 4 | 2.7 | . | . | . | 3 | -0.3
COc1ccc(NC(=O)CSCC(=O)Nc2cccc(S(=O)(=O)N3CCCCCC3)c2)cc1 | 3 | -2 | -9 | 3 | -1.8 | -17 | -16 | 5.6 | 0 | 0.7
CC(=O)C1=C(C)Nc2ncnn2C1c1cccc(Br)c1 (stereo not drawn) | -11 | -14 | 35 | . | -0.6 | 8 | 12 | 0.7 | -14 | -0.9
O=c1cc(CO)oc(CN2CCN(Cc3ccccc3)CC2)c1O | -9 | -7 | 5 | -7 | 3.6 | . | . | . | 0 | -0.6
c1cncc(CNc2ncnc3ccc(-c4ccc5c(c4)OCO5)cc23)c1 | . | -1 | 2 | . | 3.2 | 8 | 16 | 0.7 | -6 | -0.8
COc1cc(S(=O)(=O)NCc2ccccn2)c(OC)cc1Cl | -4 | 3 | -9 | -2 | 2.5 | . | . | . | . | -1.2
Cc1ccc(S(=O)(=O)c2c(C)nn(C(C)(C)C)c2OC(=O)C(C)C)cc1 | -3 | 6 | -4 | 30 | -1.7 | -7 | -25 | -4.5 | -4 | 0.8
O=C(COC(=O)CCC(=O)c1ccc(F)cc1)Nc1ccc(Cl)cn1 | . | 0 | -7 | . | -4.4 | 1 | 14 | 1.1 | -4 | 0.9
CN1CCN(c2ccc(S(=O)(=O)N3CCOCC3)cc2NC(=O)Cc2ccccc2F)CC1 | . | 1 | -1 | . | 4.2 | 15 | 7 | 7.7 | -5 | 0.3
COC(=O)c1sccc1NC(=O)CC1C(=O)NCCN1C(=O)Nc1ccc(C(F)(F)F)cc1 (stereo not drawn) | 8 | -2 | -6 | -1 | 3.4 | -7 | 1 | -3.0 | -2 | -0.7
CCOC(=O)C1=C(CN2CCc3ccccc32)NC(=O)NC1c1cc(C)ccc1C (stereo not drawn) | -2 | -1 | -4 | 1 | -8.1 | . | . | . | 16 | -0.3
CN1CCN(c2ccc(S(=O)(=O)N3CCCCC3)cc2NC(=O)CSCc2ccccc2)CC1 | 67* | 2 | -1 | -8 | -2.3 | 4 | 0 | 6.3 | 0 | 0.4
Cc1ccccc1C(=O)NC(=S)Nc1ccc(S(=O)(=O)N(C)c2ccccc2)cc1 | 15 | -7 | -20 | -2 | -1.7 | . | . | . | -3 | -0.7
COc1cccc(C(=O)C2CCCN(Cc3cccc(-n4cccn4)c3)C2)c1 (stereo not drawn) | 46 | -8 | . | -9 | -4.5 | -6 | -4 | -8.2 | 4 | 1.6
COc1cc(NC(=O)c2ccccc2-c2ccccc2)cc(OC)c1OC | 7 | . | -11 | -6 | 14 | . | . | . | -5 | -0.4
COc1ccc(/C(N)=N/OC(=O)/C=C/c2ccccc2)cc1 | 9 | -2 | 1 | -17 | -5.1 | 1 | 1 | -1.3 | -5 | -0.4
COc1cc(-c2nnc(CSc3nnc4nc(C)cc(C)n34)o2)cc(OC)c1OC | -7 | 1 | -2 | 3 | 0.8 | . | . | . | -6 | -0.7
COc1ccccc1N1CCN(CCCn2c(=S)[nH]c3ccccc3c2=O)CC1 | 0 | -12 | 97* | -5 | 3.6 | 3 | 4 | 1.3 | 10 | 0.9
CC(C)(C)C(=O)NNC(=O)CCCOc1ccc(Cl)cc1Cl | -4 | -1 | 2 | -5 | -3.4 | . | . | . | -2 | 0.5
COC(=O)C(C)Sc1nc2c(c(=O)[nH]c(=O)n2C)n1CCCc1ccccc1 (stereo not drawn) | -4 | 14 | -3 | -2 | 5.4 | . | . | . | -1 | 0.5
CSc1ncccc1C(=O)OCC(=O)N1CCN(C(=O)c2ccco2)CC1 | . | -3 | -1 | . | -4.8 | 3 | 0 | -1.4 | 1 | 1.0
Cc1nnc(NC(=O)c2ccc(S(=O)(=O)N3CCCCCC3)cc2)o1 | -19 | -7 | 61 | 63 | 2.5 | . | . | . | -4 | 0.0
CCCCC1=CC2=C(c3ccco3)C(=O)C(C)(OC(=O)c3ccc(OC)cc3)C(=O)C2=CN1Cc1ccc2c(c1)OCO2 (stereo not drawn) | -1 | 5 | -29 | 20 | -1.4 | . | . | . | 0 | 1.1
COc1ccc(-c2cc([C@H]3[C@H]4C=CC[C@@H](C)[C@@H]4C(=O)N3Cc3ccccc3)ccc2F)cc1 | 36 | 27 | . | 8 | -2.4 | 14 | 5 | -11 | 1 | 0.3
Cc1cc(NC(=O)COc2ccccc2C)no1 | -6 | 2 | ? | 3 | -0.9 | 9 | 5 | -1.0 | -1 | -1.8
O=C(Cn1c(=O)cnc2ccccc21)Nc1cccc(S(=O)(=O)N2CCOCC2)c1 | . | 4 | -2 | . | 26* | -1 | -7 | 1.7 | 0 | 0.7
Cc1ccc(S(=O)(=O)Nc2cc(=O)[nH]c3c2CCC3)cc1 | -11 | -4 | -36 | -4 | -3.7 | 10 | 8 | -0.2 | 1 | 0.8
COc1ccc(O)c(C(=O)C2c3ccccc3C(=O)N2c2ccc(C)cc2)c1 (stereo not drawn) | -7 | 2 | -6 | 2 | 2.1 | 8 | 1 | 6.3 | 2 | -2.1
Cc1ccc(C)c(NC(=S)NCc2ccc3c(c2)OCO3)c1 | -15 | -2 | . | -30 | -2.1 | . | . | . | 2 | -0.3
CC(C)(C)C1CCC(CN2C(Nc3ccccc3)=NC[C@@H]2Cc2ccccc2)CC1 (stereo partly drawn) | . | 32 | -11 | . | 5.1 | -56 | -81 | -17 | 23 | -0.8
CCOc1nc(OCC)nc(-n2cc(-c3ccccc3)nn2)n1 | 10 | -19 | 5 | -7 | -0.2 | 25 | 13 | 6.7 | -2 | -0.7
O=C(Nc1ccc2c(c1)OCCO2)C1CCCN(S(=O)(=O)c2cccs2)C1 (stereo not drawn) | 1 | -1 | . | -1 | 0.5 | . | . | . | -5 | -0.1
COC(=O)c1ccc(/C=N/NS(=O)(=O)c2cc(C)ccc2C)cc1 | -8 | 12 | 2 | -5 | 3.6 | . | . | . | -8 | -0.3
CC(C)CN1C(=O)c2ccc(C(=O)Nc3c[nH]c(=O)[nH]c3=O)cc2C1=O | -6 | -1 | 12 | 2 | -8.3 | 10 | 16 | -0.8 | . | 0.2
Cc1nc(N/C(N)=N/S(=O)(=O)c2ccccc2)nc2ccccc12 | . | 17 | . | . | 1.9 | -7 | -1 | -0.5 | -1 | -0.1
CN(Cc1ccc(C(F)(F)F)cc1)C(=O)C1CCC(=O)N(C2CC2)C1 (stereo not drawn) | -3 | 7 | -10 | -9 | -0.5 | 9 | 7 | -0.1 | -7 | 0.1
Cc1ccc(CSc2nnc(Nc3ccc(C)cc3)s2)cc1 | -12 | 2 | 0 | -4 | -3.3 | -2 | -5 | -1.7 | -4 | 0.5
CCOC(=O)C1=C(C)N=C2SC(C(=O)OC)=CC(=O)N2C1c1ccc(OC)cc1 (stereo not drawn) | 6 | 19 | . | 12 | -2.5 | 13 | 3 | 1.0 | -3 | 0.5
c1ccc(Sc2cccc3ccccc23)c(CNC2=NCCN2)c1 | 33 | 3 | -6 | ? | 4.0 | . | . | . | 13 | -0.2
CSc1ncc(CN2CCN(C3CCCC3)C(CCO)C2)cn1 (stereo not drawn) | -6 | -2 | 14 | -4 | 3.8 | -23 | -36 | -15 | -9 | -0.1
CCOC(=O)/C(=C/c1ccc(OC(=O)c2ccccc2)cc1)C(C)=O | -24 | 15 | 39 | 0 | -5.6 | . | . | . | -5 | -2.6
Cc1noc(C)c1C(=O)N1CCC2(CC1)Oc1ccc(F)cc1C(=O)C21CC(c2ccc(Cl)cc2)=NO1 (stereo not drawn) | 1 | -6 | -2 | 72 | 5.4 | 13 | 6 | 6.9 | 4 | -0.8
Cc1c(/C=N/N2C(=O)C3C4C=CC(C4)C3C2=O)c2ccccc2n1C (stereo not drawn) | 6 | -5 | -2 | -11 | 7.0 | . | . | . | -2 | 0.5
O=C(COc1ccc(C(=O)c2ccccc2)cc1)NC1CCCCCC1 | -3 | 22 | -6 | -14 | -3.5 | . | . | . | 0 | -1.3
COc1ccc(Oc2nc(SC)nc3ccsc23)cc1 | -1 | -1 | -7 | -23 | 3.9 | . | . | . | -6 | 0.3
Cc1nn(-c2ccccc2)c(C)c1C(=O)OCC(=O)N(C)C1CCS(=O)(=O)C1 (stereo not drawn) | -1 | 1 | -8 | -11 | -0.9 | 7 | 6 | 0.5 | 3 | -2.9
N#Cc1ccc(CSC2=NCCN2)cc1 | 21 | 1 | 99* | 3 | 5.5 | 14 | 1 | -7.1 | 1 | 1.0
Cc1cccc(NC(=O)c2ccccc2C(=O)Nc2cccc(C)c2)c1 | -16 | 6 | -3 | -2 | 0.3 | 3 | 8 | -0.1 | -1 | -0.5
O=S(=O)(Nc1ccc(O)c2ccccc12)c1ccc(Br)cc1 | 34 | . | 42 | 35 | -6.9 | . | . | . | . | 2.5
COC(=O)c1nnn(CC(=O)NC(=O)Nc2ccccc2F)c1C(=O)OC | -11 | 5 | -2 | -5 | -0.4 | 8 | 1 | 1.2 | 0 | 0.4
O=C(CSCc1ccccc1Br)N/N=C/c1ccccc1C(=O)O | -20 | 1 | 37 | -13 | 0.9 | -19 | -23 | -1.3 | -7 | 0.0
COc1ccc(-n2c(=O)cc(N3CCN(Cc4ccccc4)CC3)[nH]c2=O)cc1 | -2 | 0 | 9 | -5 | 0.7 | 4 | 5 | -3.1 | 0 | 0.1
